INS promoter inh: TRM-6 insulin promoter activity inhibition; 0.9% of 130,000 active; inhibition, % at 2 µM; AID 1273; TRM-6 cells (human fetal islet line), insulin promoter-eGFP reporter, imaging; reporter expression induced with tamoxifen;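 active means inhibition above the mean plus 3 SD, with well images judged a real hit on visual review, cut at about 60% in these data, passing the limit was not always enough; inconclusive means inhibition over the cutoff but images rejected on review; inactive means inhibition not above the cutoff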
GALR2 ag: activates the human galanin receptor 2 | 0.48% of 140,000 active | GALR2-expressing cells, agonist activation read-out | activation, %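 (tested at 5 µM)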 | O43603 | AID 803;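 active means above mean plus 3 SD of all compounds, about 5% in these data, not always enough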;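 further: 0% = vehicle buffer wells and 100% = reference agonist at full effect; tested in CHO reporter cells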
HSV replic up: HSV replication enhancement | HSV replication augmentation in cells, fold increase | maximum fold increase | 0.005% of 220,000 active | AID 1956;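 active means peak rise of 1.5-fold or more in the series; inconclusive means self-fluorescent or not available for retest; tested in PC3 cells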;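 further: first round at 10 µM; read as green reporter fluorescence; hits show the peak of a series up to 25 µM; 1 = signal of infected wells without compound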
RGS16-Gao HTS: regulators of human RGS16-Galphao interaction; O15492+P09471; bead-based flow cytometry RGS16-Galphao binding, fluorescence; actives lie on both sides; binding response (% of control), % at 10 µM; 0.38% of 220,000 active; AID 1441;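 active means below 25% or above 175%, edge rows of some plates excepted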;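 further: Galphao activated by GDP with aluminum fluoride before binding; 100% = wells without compound and 0% = beads without RGS; some results beyond the cut were filed as inactive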
PKD1 inh: inhibitors of human PKD1 kinase; Q15139; PKD1 kinase fluorescence polarization assay; inhibition, %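 (about 10 µM by stock and volumes)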; 0.056% of 200,000 active;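 active means inhibition of 50% or more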;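 further: controls were vehicle for no effect and a reference inhibitor for full effect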
Target sequence (Q15139 whole entry, looked up): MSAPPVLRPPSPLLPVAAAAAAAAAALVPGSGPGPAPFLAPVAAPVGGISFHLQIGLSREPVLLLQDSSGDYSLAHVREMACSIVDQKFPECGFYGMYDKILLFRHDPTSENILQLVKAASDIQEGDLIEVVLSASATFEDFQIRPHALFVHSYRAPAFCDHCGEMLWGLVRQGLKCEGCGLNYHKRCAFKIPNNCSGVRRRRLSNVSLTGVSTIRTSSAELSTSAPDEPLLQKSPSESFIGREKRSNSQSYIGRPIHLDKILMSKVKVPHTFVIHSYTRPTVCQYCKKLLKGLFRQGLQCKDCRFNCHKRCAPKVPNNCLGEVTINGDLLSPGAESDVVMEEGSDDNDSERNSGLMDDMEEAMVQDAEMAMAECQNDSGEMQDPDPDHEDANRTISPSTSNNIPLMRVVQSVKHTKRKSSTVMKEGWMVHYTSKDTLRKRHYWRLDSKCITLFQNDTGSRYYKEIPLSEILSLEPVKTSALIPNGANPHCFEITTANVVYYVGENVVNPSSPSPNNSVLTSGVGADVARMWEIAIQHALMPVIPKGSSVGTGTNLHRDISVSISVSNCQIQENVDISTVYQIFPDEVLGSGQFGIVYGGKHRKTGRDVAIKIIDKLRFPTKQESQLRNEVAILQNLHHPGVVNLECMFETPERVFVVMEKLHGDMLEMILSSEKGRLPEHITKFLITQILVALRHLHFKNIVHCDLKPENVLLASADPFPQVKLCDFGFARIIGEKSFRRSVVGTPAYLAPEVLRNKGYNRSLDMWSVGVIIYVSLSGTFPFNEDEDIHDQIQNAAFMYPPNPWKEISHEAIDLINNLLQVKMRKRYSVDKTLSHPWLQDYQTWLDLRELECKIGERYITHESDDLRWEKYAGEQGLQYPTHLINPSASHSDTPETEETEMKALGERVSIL
INS promoter inh cell count: recorded beside INS promoter inh, whose call it bears; normalized cell count, %; measured here: cell count, toxicity; reference of the scale not given here;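 cells exposed to compound for 48 h; stained nuclei by imaging scaled within each plate; lower means fewer cells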
HSV replic up primary fold: second read-out of HSV replic up, no call of its own (marks repeat the call); fold increase; compound at 10 µM; measured here: primary screen fold increase 10 uM; tested in PC3 cells;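 GFP signal in the first replicate; 1 = infected wells without compound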
* marks the source's active call; other numbers are inactive results; i = inactive; ? = inconclusive; . = not tested or not shown.

entry	SMILES	INS promoter inh	INS promoter inh cell count	GALR2 ag	HSV replic up	HSV replic up primary fold	RGS16-Gao HTS	PKD1 inh
1	COc1ccccc1N1CCN(Cc2nc3ccccc3c(=O)n2CC(C)=O)CC1	-6	94	-0.7	i	0.9	98	-8
2	Cc1ccccc1C(=O)N(Cc1nc2ccccc2c(=O)[nH]1)C1CCCC1	-6	129	.	i	0.9	103	-8
3	CC(C)c1ccc(OCC(=O)NCCO)cc1	33	120	-0.4	i	0.93	96	-6
4	CC(C)(O)CC[C@@H](O)[C@](C)(O)[C@H]1CC[C@@]2(O)C3=CC(=O)[C@@H]4C[C@@H](O)[C@@H](O)C[C@]4(C)C3CC[C@]12C (stereo partly drawn)	.	.	.	i	1.2	108	17
5	CCc1ccc(S(=O)(=O)/N=C2\C=CC(=O)c3ccccc32)cc1	-327	90	.	i	0.9	78	-5
6	CCSc1nc2cc(OC)c(OC)cc2c(=O)n1CCc1ccccc1	-27	99	-1.4	i	0.82	108	-1
7	COc1cc(/C=N/N=C(\N)c2nonc2N)cc(OC)c1OC	-13	88	.	i	0.91	99	9
8	COc1ccc(C(C(=O)NC(C)(C)C)N(C(=O)CNC(=O)c2cccs2)c2ccc(NC(C)=O)cc2)cc1OC (stereo not drawn)	.	.	.	i	1	77	-3
9	Cc1ccc(C(=O)N2CC(C)OC(C)C2)c(Cl)c1 (stereo not drawn)	25	101	-1.1	i	0.62	103	3
10	COc1cccc(N(Cc2nnc3n2CCCCC3)C(=O)Nc2ccccc2F)c1	.	.	.	i	0.91	101	-7

Next compounds follow.
entry	SMILES	INS promoter inh	INS promoter inh cell count	GALR2 ag	HSV replic up	HSV replic up primary fold	RGS16-Gao HTS	PKD1 inh
11	Cc1noc(C)c1CSc1nc2sc(C)c(C)c2c(=O)n1-c1ccccc1	-23	79	-0.2	i	1.1	101	1
12	Cc1ccnc(NC(=O)COc2c(C)cc(C)cc2[N+](=O)[O-])c1	23	183	-0.6	i	1	105	-1
13	COc1ccc(N(Cc2cc3ccc(C)cc3[nH]c2=O)C(=O)C2CCCO2)cc1 (stereo not drawn)	.	.	.	i	1.1	97	.
14	O=S(=O)(c1ccc(F)c(F)c1F)N1CCN(C(=S)NC2CC3CCC2C3)CC1 (stereo not drawn)	-7	146	.	i	1	101	-6
15	CC(=O)Nc1ccc(-n2c(C)c(C(C)=O)c(C(C)=O)c2C)cc1	11	117	-1.2	i	0.93	72	-3
16	CCCS(=O)(=O)c1c(S(=O)(=O)CCC)c2cnccn2c1C(=O)c1ccc(Cl)cc1	-8	57	-0.2	i	1	102	-4
17	O=C(CP(=O)(c1ccccc1)c1ccccc1)N1CCCCC1	-197	64	-1.6	i	1	102	-9
18	COc1ccc(C2Nc3ccccc3C(=O)N2c2ccc(F)cc2)cc1CSc1ccccn1 (stereo not drawn)	35	137	6.4*	i	0.83	105	16
19	CCC(C)NCCOc1ccc(Br)cc1 (stereo not drawn)	-13	73	-1.6	i	0.91	148	-2
20	COc1ccc(C(=O)Nc2cccc(/C=C/c3nc4ccccc4c(=O)[nH]3)c2)cc1	.	.	.	i	0.64	102	.

Carrying on.
entry	SMILES	INS promoter inh	INS promoter inh cell count	GALR2 ag	HSV replic up	HSV replic up primary fold	RGS16-Gao HTS	PKD1 inh
21	COc1cc(NC2c3ccccc3C(=O)N2Cc2ccc3c(c2)OCO3)cc(OC)c1OC (stereo not drawn)	.	.	-2.8	i	0.8	100	-10
22	COC(=O)c1[nH]c2ccccc2c1NC(=O)CN1CCC(C(N)=O)(N2CCCCC2)CC1	14	48	-0.3	i	0.91	91	1
23	Cc1ccn2c(NC3CCCC3)c(-c3cccs3)nc2c1	-7	116	.	i	1.1	102	3
24	CCOC(=O)c1sc(NC(=O)c2cc3n(n2)C(C(F)(F)F)CC(c2cccs2)N3)c(C(=O)OCC)c1C (stereo not drawn)	26	81	-1.0	i	0.94	101	0
25	O=C(N[C@@H](Cc1ccccc1)C(=O)OCc1ccccc1)c1nc[nH]c1C(=O)NC(c1ccccc1)c1ccccc1	.	.	.	i	0.8	101	3
26	CC(=O)c1cc(C#N)c(Oc2cccc(C(F)(F)F)c2)nc1C	-16	128	-2.2	i	0.81	101	-4
27	COc1cccc(C2CC(c3ccccc3OC)n3nc(N)nc3N2)c1 (stereo not drawn)	.	.	-1.6	i	0.74	77	0
28	COC(=O)C(NS(C)(=O)=O)(c1c(C)[nH]c2ccccc12)C(F)(F)F (stereo not drawn)	.	.	-1.8	.	.	117	-3
29	O=C(NC(CSCc1ccccc1)C(=O)N/N=C/c1ccc(O)cc1O)c1ccc([N+](=O)[O-])cc1 (stereo not drawn)	-46	81	-1.9	i	0.61	85	-2
30	CSc1nc2[nH]c3c(c2c2nncn12)CC(C)(C)OC3	.	.	-1.8	i	0.97	101	1

Next results:
entry	SMILES	INS promoter inh	INS promoter inh cell count	GALR2 ag	HSV replic up	HSV replic up primary fold	RGS16-Gao HTS	PKD1 inh
31	O=C(NCc1ccccc1)c1cc(-n2cnnc2)ccc1Cl	6	109	-2.6	i	0.86	93	-1
32	CCn1c(Cc2c(C)[nH]c3ccccc23)nnc1SCC(N)=O	-36	117	-0.7	i	0.9	100	-1
33	CC(=O)Cc1nsc(NC(=O)c2ccc(-c3cc(C(F)(F)F)ccc3Cl)o2)n1	9	87	5.0	i	0.67	100	4
34	C/C(Cl)=C/Cn1c(=O)c2c(nc(Br)n2Cc2ccccc2)n(C)c1=O	23	50	0.6	i	0.96	70	-4
35	COc1ccccc1OCCNc1cc(N2CCOCC2)ccc1[N+](=O)[O-]	-19	133	-2.9	i	0.86	99	-14
36	c1ccc(Nc2ccccn2)cc1	69	107	-2.2	i	0.91	42	9
37	CCCCNC(=O)Nc1cc(C(F)(F)F)c[nH]c1=O	.	.	-0.6	i	0.95	99	-17
38	CCn1c2ccccc2c2cc(NC(=O)COc3ccccc3)ccc21	-7	56	-0.1	i	0.82	101	7
39	N=c1oc2ccccc2cc1-c1nc(-c2ccccc2)cs1	.	.	20*	i	1.1	86	0
40	COc1cccc(C(CC(=O)NCc2ccco2)NS(=O)(=O)c2ccc(C)cc2)c1OC (stereo not drawn)	.	.	-0.8	i	0.93	98	-9

Continuation.
entry	SMILES	INS promoter inh	INS promoter inh cell count	GALR2 ag	HSV replic up	HSV replic up primary fold	RGS16-Gao HTS	PKD1 inh
41	CC(=O)NC(c1ccccc1)c1cccnc1 (stereo not drawn)	.	.	0.8	i	0.87	62	-10
42	CCOC(=O)Nc1ccc2c(c1)N(C(=O)CN1CCN3CCCC3C1)c1ccccc1CC2 (stereo not drawn)	.	.	0.1	i	0.78	106	-3
43	COc1ccc([N+](=O)[O-])cc1-n1cnnn1	.	.	.	i	0.96	102	-5
44	CC(NC(=O)COc1ncnc2cc([N+](=O)[O-])ccc12)c1ccccc1 (stereo not drawn)	-21	62	-1.0	i	0.94	107	6
45	CC1=CSC2=NC(C(F)(F)F)(C(F)(F)F)NC(=O)N12	.	.	.	?	.	104	.
46	O=C(C(Cc1ccccc1)n1cccc1)N1CCN(C2CCCCC2)CC1 (stereo not drawn)	.	.	-0.9	i	0.82	104	-10
47	C(/CCc1ccccc1)=N\Nc1nc2ccccc2[nH]1	0	86	.	i	0.78	99	-6
48	COc1ccccc1CNC(=O)C1CCN(C(=O)N(C)C)CC1	-23	99	-2.1	i	1	102	-2
49	O=C(Nc1ccccc1)c1nnsc1S(=O)c1ccc(Cl)cc1 (stereo not drawn)	28	77	-3.8	i	0.55	83	-3
50	COc1ccccc1-c1cc(C(F)(F)F)nc(NCc2ccco2)n1	.	.	-2.7	i	1.1	103	-2

An excerpt from above in order of the HSV replic up primary fold value, rising.
No. | molecule | GALR2 ag | HSV replic up | HSV replic up primary fold | RGS16-Gao HTS | PKD1 inh
49 | O=C(Nc1ccccc1)c1nnsc1S(=O)c1ccc(Cl)cc1 (stereo not drawn) | -3.8 | i | 0.55 | 83 | -3
42 | CCOC(=O)Nc1ccc2c(c1)N(C(=O)CN1CCN3CCCC3C1)c1ccccc1CC2 (stereo not drawn) | 0.1 | i | 0.78 | 106 | -3
43 | COc1ccc([N+](=O)[O-])cc1-n1cnnn1 | . | i | 0.96 | 102 | -5

Next part:
entry	SMILES	INS promoter inh	INS promoter inh cell count	GALR2 ag	HSV replic up	HSV replic up primary fold	RGS16-Gao HTS	PKD1 inh
51	Cn1nc(C(F)(F)F)c2cc(NC(=O)OCc3ccc(F)cc3)sc21	-37	106	-1.9	i	0.83	110	5
52	CCCNC(=O)COc1ncnc2sccc12	.	.	.	i	1.1	103	0
53	O=C(NCc1ccc(F)cc1)c1cc2n(n1)C(C(F)(F)F)CC(C1CC1)N2 (stereo not drawn)	.	.	-0.5	i	0.92	93	-5
54	COC(=O)CSc1nnc(Cc2ccccc2)n1-c1ccc(C)cc1	-112	100	-1.4	i	1	101	-10
55	O=C(COc1ccccc1C(=O)N/N=C\c1ccc(O)c(O)c1)N/N=C/c1ccc(O)c(O)c1	.	.	-0.9	.	.	16*	13
56	CC(C)CC(c1nnnn1Cc1ccco1)N1CCN(C2CCCC2)CC1 (stereo not drawn)	-26	111	-0.9	i	0.99	100	-15
57	O=C1CCCC(=O)N1c1ccc(N2CCOCC2)c([N+](=O)[O-])c1	.	.	.	i	1	93	7
58	C/C(=N\NC(=O)COc1ccccc1-c1ccccc1)c1ccc(O)cc1O	.	.	.	i	0.95	98	.
59	CCC(C)(C)n1nnnc1C(c1cccs1)N1CCN(c2nc3ccccc3s2)CC1 (stereo not drawn)	-8	163	-0.5	i	0.87	107	6
60	COc1cccc(CC(=O)Nc2nc(-c3cccnc3)cs2)c1	-14	129	-1.4	i	1.1	96	-13

Next section
entry	SMILES	INS promoter inh	INS promoter inh cell count	GALR2 ag	HSV replic up	HSV replic up primary fold	RGS16-Gao HTS	PKD1 inh
61	COc1ccc(-c2ccc(C#N)c(SCC(=O)OCc3ccccc3)n2)cc1OC	0	123	0.5	i	0.98	106	-6
62	CC(=O)Oc1ccc(N2C(=O)CCC2=O)cc1	.	.	-1.5	i	0.97	64	-7
63	CCOc1ccc(CCNC(=O)CCN2C(=O)COc3ccccc32)cc1OCC	-23	145	-0.8	i	1.1	98	2
64	COc1ccc(CN2CC34C=CC(O3)C(C(=O)O)C4C2=O)cc1 (stereo not drawn)	.	.	-2.5	i	1.1	100	-2
65	CCN(CC(=O)Nc1cccc(C#N)c1)CC(=O)Nc1cccc(OC)c1	-150	33	.	.	.	101	2
66	O=C(c1ccco1)N1CCN(C(=O)N2c3ccccc3Sc3ccccc32)CC1	-381	7	1.0	i	0.6	83	-6
67	Cc1ccc(C)c(N2CCN(C(=O)c3ccccc3Br)CC2)c1	.	.	-1.9	i	0.8	117	4
68	COc1cc(NC(=O)c2cc3nc(-c4ccccc4)cc(-c4ccccc4)n3n2)cc(OC)c1OC	.	.	-0.4	i	0.69	97	13
69	COc1ccc(C2=NOC(C(=O)N3CCCc4ccccc43)C2)cc1 (stereo not drawn)	36	143	-0.7	i	1	116	-1

By substructure: those above with an NH in an aromatic ring (ten)
entry	SMILES	INS promoter inh	INS promoter inh cell count	GALR2 ag	HSV replic up	HSV replic up primary fold	RGS16-Gao HTS	PKD1 inh
2	Cc1ccccc1C(=O)N(Cc1nc2ccccc2c(=O)[nH]1)C1CCCC1	-6	129	.	i	0.9	103	-8
13	COc1ccc(N(Cc2cc3ccc(C)cc3[nH]c2=O)C(=O)C2CCCO2)cc1 (stereo not drawn)	.	.	.	i	1.1	97	.
20	COc1ccc(C(=O)Nc2cccc(/C=C/c3nc4ccccc4c(=O)[nH]3)c2)cc1	.	.	.	i	0.64	102	.
22	COC(=O)c1[nH]c2ccccc2c1NC(=O)CN1CCC(C(N)=O)(N2CCCCC2)CC1	14	48	-0.3	i	0.91	91	1
25	O=C(N[C@@H](Cc1ccccc1)C(=O)OCc1ccccc1)c1nc[nH]c1C(=O)NC(c1ccccc1)c1ccccc1	.	.	.	i	0.8	101	3
28	COC(=O)C(NS(C)(=O)=O)(c1c(C)[nH]c2ccccc12)C(F)(F)F (stereo not drawn)	.	.	-1.8	.	.	117	-3
30	CSc1nc2[nH]c3c(c2c2nncn12)CC(C)(C)OC3	.	.	-1.8	i	0.97	101	1
32	CCn1c(Cc2c(C)[nH]c3ccccc23)nnc1SCC(N)=O	-36	117	-0.7	i	0.9	100	-1
37	CCCCNC(=O)Nc1cc(C(F)(F)F)c[nH]c1=O	.	.	-0.6	i	0.95	99	-17
47	C(/CCc1ccccc1)=N\Nc1nc2ccccc2[nH]1	0	86	.	i	0.78	99	-6

Not a hit list (roughly 1.2% active in at least one column).
